Screens as filed in PubChem BioAssay.
Sfp inh = blocks B. subtilis Sfp PPTase activity; Q9F4F7; Biochemical Sfp PPTase activity, qHTS; Potency, µM, inactives show max response, negative = inhibition, hits mostly inhibitors; actives 3.5% (n = 310,000); AID 1490; active means well fitted inhibition curve with a large enough effect; inconclusive means small, poorly fitted or top-dose-only effect, or another doubt; inactive means no such curve, though single readings can be large or run the other way;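 further: the enzyme is Sfp with the accession as filed and its product quenches rhodamine fluorescence; potency means the concentration at half of the fitted maximal effect; 0% = enzyme reaction without inhibitor and -100% = no enzyme wells; top concentration of the series not given in the record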
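Compounds were incubated with enzyme (final 15 nM) for 15 min at room temperature before substrate addition started the reaction. Fluorescence at 525 nm excitation, 598 nm emission was recorded immediately and after 30 minutes.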
TRPV1 potentiator = enhances activation of the human vanilloid receptor TRPV1 | Q8NER1 | TRPV1-expressing cells, Fluo-8 calcium influx, capsaicin EC20 potentiation; host cell line not named in the record; control for the full effect not named in the record | potentiation, % at 8.33 µM | actives 0.02% (n = 320,000); active means potentiation above 80%; inconclusive means 30% to 80%; inactive means below 30%; further: 0% is about no effect
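Fluo-8 calcium influx in TRPV1-expressing cells, kinetic read (ex 480/em 520 nm). Compound added and read 3 min for agonist activity, followed by capsaicin at EC20 final and 2 min further read for enhancement.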
gsp ag = activates gsp, the McCune-Albright syndrome mutation; actives 0.13% (n = 340,000); Potency, µM (doses to about 76.9 µM), without a hit: at the highest dose activation (cAMP increase), actives largely listed as activators; gsp mutant cells, cAMP HTRF, 30 min; control for the full effect not named in the record; active = well fitted activation curve with a large enough effect; inconclusive = small, poorly fitted or top-dose-only effect, or another doubt; inactive = no such curve, though single readings can be large or run the other way; cell line not stated here;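 further: phosphodiesterase inhibitor Ro 20-1724 added with compounds to block cAMP breakdown; potency means the concentration at half of the fitted maximal effect; nearly all actives have a fitted effect of over 60% in size; about a fifth of the inactives were tested at one dose only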
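Cells stably selected in G418 were plated at 2000/well, grown 16-24 hr, then given compounds in DMSO with the PDE inhibitor […] (300 uM solution added) for 30 min at 37C; cAMP was read by HTRF.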
gsp antagonist = antagonizes gsp, the McCune-Albright syndrome mutation. gsp-mutant cells, cAMP HTRF, 30 min; control for the full effect not named in the record. Potency, µM (titrated, usually from 76.9 µM), for inactives: at the top dose activity change, negative = inhibition, actives largely listed as inhibitors. AID 624288. actives 0.4% (n = 340,000); active = falling curve of any shape with a large fitted effect; inconclusive = falling curve, mostly with a smaller effect; inactive = flat or rising curve; cell line not stated here;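 further: intracellular cAMP measured with PDE inhibitor Ro 20-1724 present during compound exposure; potency means the concentration at half of the fitted maximal effect; on the % scale 0 is the no-effect control and ±100 the full control effect; nearly all actives have a fitted effect of over 65% in size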
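Cells in G418 medium, seeded 16-24 h, 37C; buffer exchange to DPBS + 1 mM CaCl2, 0.5 mM MgCl2, 0.05% BSA; cpds in DMSO + […] (300 uM stock), 30 min 37C; HTRF cAMP detection.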
Menin MLL FP FL = displaces fluorescein MLL peptide from human menin | Fluorescence polarization, fluorescein-MLL peptide displacement from menin | FP activity change, % at 61.4 µM | 290,000 tested, under 10 active | AID 1766; inconclusive = falling polarisation curve, or a change in total fluorescence; inactive = total fluorescence flat and polarisation flat or rising; no compound was filed as active; the % refers to the polarisation; negative = inhibition;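 further: % of control where 0% means no effect; inhibitors lower the polarisation; unlabelled MLL peptide was the positive control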
D2 potentiator = human D2 receptor positive allosteric modulation; DiscoveRx D2 beta-arrestin cells, luminescence, 90 min; 100% = 57 uM dopamine signal; potentiation, % (concentration not given with the values); actives 0.23% (n = 360,000); active = potentiation of 50% or more; inconclusive = 30% to 50%; inactive = 30% or less;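 further: compound concentration not given in the record; tested on top of an EC20 dose of dopamine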
Target sequence (P14416 whole entry, looked up): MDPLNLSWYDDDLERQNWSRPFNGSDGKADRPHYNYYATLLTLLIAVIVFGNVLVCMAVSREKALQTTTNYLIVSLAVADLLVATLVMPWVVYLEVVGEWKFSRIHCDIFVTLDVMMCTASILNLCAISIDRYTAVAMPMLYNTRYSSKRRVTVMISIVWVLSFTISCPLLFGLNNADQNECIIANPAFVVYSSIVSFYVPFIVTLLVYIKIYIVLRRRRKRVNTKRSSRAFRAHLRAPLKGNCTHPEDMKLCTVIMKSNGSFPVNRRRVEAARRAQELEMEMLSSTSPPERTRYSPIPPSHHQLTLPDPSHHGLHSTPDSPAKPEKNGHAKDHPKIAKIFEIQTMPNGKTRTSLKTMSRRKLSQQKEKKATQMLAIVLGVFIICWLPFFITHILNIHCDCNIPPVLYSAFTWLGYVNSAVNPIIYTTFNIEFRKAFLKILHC
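PathHunter D2 cells, attached overnight at 37 deg C, received compound in DMSO plus dopamine at EC20 (50 nM final) for 90 min at 37 deg C. Beta-arrestin recruitment was read as luminescence after 1 h with detection reagent at ambient temperature.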
ClpP mod = qHTS Assay for Activators of ClpP. ATP-dependent Clp protease proteolytic subunit (Bacillus subtilis (strain 168)), P80244. purified B. subtilis ClpP, FRET peptide cleavage, 20 min. Potency, µM (series often up to 57.5 µM), inactives show at the top dose activity change, negative = active. actives 1.9% (n = 340,000). AID 651965, 2013; active = well fitted falling curve with a large enough effect; inconclusive = small, poorly fitted or top-dose-only effect; inactive = no such curve, though single readings can be large or run the other way; further: potency means the concentration at half of the fitted maximal effect; the source files actives as falling curves though it sought activators and does not explain the sign; nearly all actives have a fitted effect of over 65% in size; many hits overshoot -100%
Target sequence (P80244 whole entry, looked up): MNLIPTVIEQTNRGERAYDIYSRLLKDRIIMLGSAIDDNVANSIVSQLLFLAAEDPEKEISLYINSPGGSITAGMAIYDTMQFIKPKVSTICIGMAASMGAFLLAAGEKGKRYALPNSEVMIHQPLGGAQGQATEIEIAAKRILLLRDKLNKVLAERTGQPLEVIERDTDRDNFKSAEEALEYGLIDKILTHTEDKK
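ClpP 10 microg/mL final, pH 8 Tris/KCl buffer with BSA, glycerol, Tween-20; compound pinned in; FRET-FV substrate; RT 20 min; Ex320/Em430; ΔFRET vs ADEP 5.8 microM, DMSO, no enzyme.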
* marks the source's active call; other numbers are inactive results; u = inconclusive; x = no result given; [ ] = remark or other dose. Not all compounds are listed; count on the stated rates, not on these rows.

SMILES	Sfp inh	TRPV1 potentiator	gsp ag	gsp antagonist	Menin MLL FP FL	D2 potentiator	ClpP mod
COC(=O)C1=C(c2ccc(OCc3ccccc3)cc2)C[C@@H]2CC[C@H]1N2C(=O)NCc1cccc(OC)c1	x	3	-74%[inhibitor]	-7%	x	-7	-4.9%
C=CC(C)C(C(=O)c1ccccc1)N(C)C (centres undefined)	11%	-9	-63%[inhibitor]	8%	6.5	-5	-2.9%
CC(C)C(=O)N1CCC(CN=Cc2c(O)n(C3CCCCC3)c(=O)n(C3CCCCC3)c2=O)CC1	u	-14	u	-3%	-0.2	-2	-1.7%
Cc1cc(C=C2C(=O)NC(=S)NC2=O)c(C)n1C1CCCC1	40µM*	1	24%	-23%	u	-1	x
O=C(COc1ccc(S(=O)(=O)N2CCCCC2)cc1)N1CCN(Cc2ccccc2)CC1	0%	-1	32µM*	-16%	0.2	-11	21%
Cc1nc2ccccc2c(=O)n1-c1ccc(Cl)cc1[N+](=O)[O-]	-6%	-4	-7%	0%	1.0	-3	1.1%
Cc1ccccc1CCNCc1ccc(Br)cc1	7%	4	-5%	4%	4.0	-15	x
Cc1cc(C)c(C)c(C(O)(C(=O)O)c2ccccc2)c1 (centres undefined)	x	x	-90%[inhibitor]	x	x	-8	-2.6%
COc1ccc(-c2nc3ccccc3n2OC(=O)N(C)C)cc1	19%	0	8%	-10%	-0.2	-2	9.8%
N=C1c2ccccc2CN1NC(=O)c1ccco1	x	x	10%[15.4 µM]	8%	x	-5	-2.7%
COc1ccc(NC(=S)NC(NC(=O)CF)C(Cl)(Cl)Cl)cc1[N+](=O)[O-] (centres undefined)	-8%	-2	-17%	4%	-0.4	-23	-0.5%
O=[N+]([O-])c1cccc(O)c1	x	-2	x	1%	x	-4	-0.6%
COC(=O)C1=C(c2cccc(C#N)c2)C[C@@H]2CC[C@H]1N2C(=O)NCCO	x	4	x	3%	x	-3	0.2%
CN1CCN(Cc2ccccc2Sc2ccccc2)CC1	-15%	-11	2%	16%	x	-43	1.4%
CC(=O)c1ccc2c(c1)C1C(Cl)C(Sc3ccccc3[N+](=O)[O-])CC1C(c1ccccc1)N2 (centres undefined)	-25%	-16	-1%	u	4.4	17	6.0%
CCC(CC)NCc1c[nH]c2ccccc12	-8%	-1	u	-2%	0.2	-6	0.9%
O=C(O)CCC(=O)NCCC1=c2ccccc2=N/C1=C\c1c(O)n(Cc2ccc(F)cc2)c(=S)[nH]c1=O	35µM*	13	-7%[15.4 µM]	-5%	22	-10	x
COc1ccc(CC2(CCc3ccncc3)C(=O)NC(=O)NC2=O)c(OC)c1	0%	6	u	-2%	1.4	-6	x
COc1cc(N2CCOCC2)ccc1/C=C1\C(=O)NC(=O)N(Cc2cccs2)C1=O	1%	11	-8%[15.4 µM]	-3%	19	5	x
CCC(=NCc1ccco1)c1c(O)n(-c2ccccc2C)c(=O)[nH]c1=O	-2%	-8	-11%	-8%	0.0	-5	x
C1=NCCCN2CCCCC12 (centres undefined)	x	x	23%	x	x	-7	0.5%
CCc1cccc2c1NC(=O)C2=O	x	x	-33%[inhibitor]	10%	x	-20	x
CCn1c(C)c(C(=O)O)c2cc(OC)ccc21	23%	5	1%	-17%	-0.5	-6	-28%
N#CC1=C(N)Oc2n[nH]c(-c3cccs3)c2C1c1ccco1 (centres undefined)	u	25	-94%[inhibitor]	-12%	u	-26	-1.1%
CC(=NCc1cccnc1)c1c(O)n(Cc2ccccc2)c(=O)[nH]c1=O	-1%	2	-2%	2%	1.3	-7	1.9%
Other entries:
SMILES	Sfp inh	TRPV1 potentiator	gsp ag	gsp antagonist	Menin MLL FP FL	D2 potentiator	ClpP mod
COC(=O)C1=C(c2cccc(OCc3ccccc3)c2)C[C@@H]2CC[C@H]1N2C(=O)NCc1cccc(OC)c1	x	-14	x	-14%	x	0	-1.7%
CNP(=O)(Oc1ccccc1)OC12CC3CC(CC(C3)C1)C2 (centres undefined)	9%	0	u	5%	-3.0	0	x
COc1ccc(CNCCc2c[nH]c3ccccc23)cc1OC	-22%	-8	3%	4%	-0.4	-14	-2.3%
Cc1cccc(NC(=S)N2CC3CC(C2)c2cccc(=O)n2C3)c1C (centres undefined)	13%	-5	-29%	13%	8.1	-20	0.3%
Cc1cc(C)cc(N2C(=O)NC(=O)/C(=C\c3cccn3-c3ccc(Cl)cc3)C2=O)c1	-1%	26	6%	0%	1.2	-7	0.1%
CC(C(=O)Nc1ccc(Br)cc1C(=O)c1ccccc1)N1CCOCC1 (centres undefined)	6%	22	-33%[inhibitor]	-16%	-5.3	2	0.2%
CN1C(=O)C(C2c3ccccc3C(=O)N2Cc2ccc([N+](=O)[O-])cc2)C(=O)N(C)C1=O (centres undefined)	13%	10	-22%	3%	3.5	-9	1.0%
CCOC(=O)c1c(-c2ccc(OC)cc2)oc2ccc(OC(=O)N(C)C)cc12	u	9	2%	-26%	7.2	-1	u
Cc1[nH]c2ccccc2c1C(=O)CN1CC=C(c2ccccc2)CC1	11%	2	-37%[inhibitor]	-1%	12	-8	0.9%
COc1cccc(OC)c1C(=O)Nc1nc(N)n(-c2ccccc2)n1	21%	1	-1%	7%	5.5	-2	-3.4%
C=C(C)c1cccc(C(C)(C)NC(=O)NC2CN3CCC2CC3)c1 (centres undefined)	7%	3	u	9%	1.9	-9	-1.5%
CCC(C)C(NC(=O)CCCNC(=O)CCC(=O)OC1O[C@H]2OC3(C)CC[C@H]4[C@H](C)CCC(C1C)C24OO3)C(=O)O (some centres undefined)	19%	0	x	x	-1.2	x	x
Cc1c(N=Nc2c(O)[nH]c(=S)[nH]c2=O)c(=O)n(-c2ccccc2)n1C	45µM*	2	5%[15.4 µM]	3%	6.6	-12	-2.0%
COc1ccc(C(=O)C2CCCN(Cc3cnc(C)s3)C2)cc1OC (centres undefined)	5%	3	6%[15.4 µM]	u	0.2	-13	x
COC(/C(C)=C/C=C/C(C)=C/c1coc(C)n1)C(C)C1CC(O)C2(C)OC2C=CC(C)C2CC(CC(=O)O2)CC2OC2C(=O)O1 (centres undefined)	x	x	14%	-11%	x	-1	-4.1%
CCN(c1ccccc1)S(=O)(=O)c1ccc(C(=O)NC2CCCCC2)cc1	x	x	-40%[inhibitor]	x	x	-16	-1.4%
CCC(=O)CC(c1ccc([N+](=O)[O-])cc1)c1c(O)c2ccccc2oc1=O (centres undefined)	7%	-15	6%	32µM*	4.4	-12	-1.7%
Cc1ccc(Cl)cc1N1CCN(CCN)CC1	11%	-3	-7%	5%	3.5	-27	1.0%
C/C(CCc1c[nH]c2ccccc12)=N\O	-3%	7	u	4%	2.8	0	-3.7%
CCOC(=O)c1ccc2c(c1)n(CCO)c(C)[n+]2CC	0%	x	-7%	7%	1.1	-6	-0.5%
COc1ccc(S(=O)(=O)NCC2CCC(C(=O)N3CCC4(CC3)OCCO4)CC2)cc1 (centres undefined)	8%	-3	7%	1%	-0.1	-7	10µM*
CC1(C)C(c2ccccc2)=NC(c2cccnc2)N1O (centres undefined)	-23%	-2	-7%	3%	3.4	3	1.8%
Cc1cc2oc(=O)cc(-c3ccccc3)c2c(C)c1-c1ccc(CO)cc1	126µM*	x	x	-9%	0.3[94.6 µM]	x	-2.0%
COC(=O)C1=C(c2ccc(F)cc2OCc2ccccc2)C[C@@H]2CC[C@H]1N2C(=O)NCc1ccc(F)cc1	x	-8	-3%	-27%	x	-8	-1.4%
CN(C)CC#CCOCCOCCC#N	12%	-29	-10%	5%	2.5	3	-0.4%

Molecules listed so far that have a cyano group, in the order listed:
SMILES	Sfp inh	TRPV1 potentiator	gsp ag	gsp antagonist	Menin MLL FP FL	D2 potentiator	ClpP mod
COC(=O)C1=C(c2cccc(C#N)c2)C[C@@H]2CC[C@H]1N2C(=O)NCCO	x	4	x	3%	x	-3	0.2%
N#CC1=C(N)Oc2n[nH]c(-c3cccs3)c2C1c1ccco1 (centres undefined)	u	25	-94%[inhibitor]	-12%	u	-26	-1.1%
CN(C)CC#CCOCCOCCC#N	12%	-29	-10%	5%	2.5	3	-0.4%

Following part.
SMILES	Sfp inh	TRPV1 potentiator	gsp ag	gsp antagonist	Menin MLL FP FL	D2 potentiator	ClpP mod
O=c1[nH]c(=O)n(Cc2ccccc2)c(O)c1/C=N/NCCO	-16%	12	15%[15.4 µM]	-13%	u	-8	-0.2%
COc1ccccc1N1C(=O)NC(=O)C2(Cc3cc(C)ccc3N(C)C2)C1=O (centres undefined)	-17%	-2	25%	-8%	-0.5	-15	0.8%
CC1CN(c2ccc([N+](=O)[O-])c3cccnc23)CC(C)N1 (centres undefined)	-3%	-8	13%	-2%	3.7	-7	1.4%
CCCC(=O)NC(Oc1ccccc1Cl)C(Cl)(Cl)Cl (centres undefined)	13%	8	-1%	0%	3.9	4	-1.1%
Cc1nc2c(c(C)nn2-c2ccccc2)c(C)c1CCC(=O)N1CCC2(CC1)OCCO2	19%	9	0%	-1%	6.2	-12	u
CCOC(=O)C1(CCc2ccccc2)CCN(Cc2csc(C(C)=O)c2)CC1	-5%	-10	-13%[15.4 µM]	-3%	-0.5	-13	x
C=CCn1c(O)c(C(C)=NCCN2CCCCC2)c(=O)[nH]c1=O	-13%	u	2%	5%	4.2	-15	0.2%
COP(=O)(NC(C)=O)SC (centres undefined)	x	x	x	2%	x	-8	-0.9%
O=C1NC(=O)C2(CCCc3ccc(N(CCCl)CCCl)cc32)N1 (centres undefined)	x	x	u	6%	x	-7	x
COc1ccc(C(CNC(=O)CCc2ccsc2)N(C)C)cc1 (centres undefined)	11%	-6	-38%[inhibitor]	9%	-1.5	-3	x
CC(=O)NCC(=O)Nc1ccc(Br)cc1C(=O)c1ccccc1	15%	20	0%[15.4 µM]	1%	-1.4	-1	x
Cn1c(O)c(C2=NN(C(=O)CCl)C(c3ccccc3)C2)c(=O)n(C)c1=O (centres undefined)	-11%	-7	4%	-7%	-0.6	-19	-6.2%
Cn1c(O)c(/C=N/Nc2ccccc2)c(=O)n(C)c1=O	56µM*	8	-2%[15.4 µM]	-16%	u	0	x
CC(C)CN1CCN(Cc2ccccc2C(F)(F)F)CC1CCO (centres undefined)	6%	2	7%	2%	0.6	-20	1.7%
Cc1ccccc1CC(=O)N(CCN(C)C)CC1CCCN(Cc2ccccc2F)C1 (centres undefined)	12%	-2	-8%[15.4 µM]	16%	0.6	3	-12%
